Screening results deposited in PubChem by ICCB-Longwood Screening Facility, Harvard Medical School.
MgrA DNA FP = S. aureus MgrA activity modulators, primary screen, biochemical, S. aureus Newman, fluorescence polarization | MgrA-DNA binding | inhibition, %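 (about 10 µg/mL by stock and volumes)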 | 84,000 tested, 0.13% active | AID 602314, 2012;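 active = above 50% in either of two replicates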;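 also: 0% = protein plus DNA without compound and 100% = DNA alone without protein; higher means less MgrA bound to DNA so lower polarization; one replicate is shown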
Sa helicase inh = inhibitors of S. aureus replicative helicase, primary screen, biochemical, fluorescence unwinding readout; inhibition, %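 (tested at about 80 µM)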; purified S. aureus helicase, fluorescence unwinding assay; about half of the hits fall short of the stated cut; replicative DNA helicase (DnaC/DnaB), Staphylococcus aureus; 120,000 tested, 0.05% active;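 active = both duplicates at 50% or more, or one of them with a favoured structure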;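 also: 0% = mean of negative control wells and 100% = mean of positive control wells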
The depositor's hits bear a star; . = no result given; & = joins results of further samples. Not all compounds are listed; rates above refer to the full screens.

Sa helicase inh	MgrA DNA FP	molecule
0	.	COc1ccc(C2CC(=O)N(CC(=O)c3ccccc3)c3ccccc3S2)cc1 (stereo not drawn)
8	.	CCCn1c(CNS(=O)(=O)c2ccc(C)cc2)nc2ccccc21
.	0.3	CC(C)(C)OC(=O)C(C)(C)S(=O)(=O)c1ccc(C(F)(F)F)cn1
9	3.0	CCOC(=O)c1c(-c2ccccc2)n(S(C)(=O)=O)c2ccc(NS(C)(=O)=O)cc12
14	-0.4	O=C(C1CC1)N1CCc2cc(S(=O)(=O)Nc3cccc(F)c3)ccc21
-5	.	CC(C)(C)NC(=O)CN1CCCNCC1
6	0.5	O=S(=O)(c1ccccc1)N1CCCN(S(=O)(=O)c2ccccc2)CC1
8	-0.5	CC1CCN(C(=O)COC(=O)c2ccc(C#N)cc2)CC1
9	.	CCOC(C(=O)c1ccccc1)c1ccccc1 (stereo not drawn)
13	.	Cc1nc2c(-c3ccccc3)c(C)nn2c(C)c1CC(=O)N1CCCC1
15	-0.5	O=C1CCCCCN1Sc1ccccc1
15	-3.5	CCOc1cc(C(=O)O)ccc1OCC(C)C
-3	2.3	CCCC12CN3CC(CCC)(CN(C1)C3C(O)C(O)C(O)CO)C2=O (stereo not drawn)
10	.	COc1ccc2cc(C#N)c(NC(C)C)nc2c1
10	.	O=C(N=C1c2ccccc2CN1c1ccc(F)c(Cl)c1)c1ccco1
30	.	CC(=O)NCc1ccc(C(=O)COC(=O)Cc2n[nH]c(=O)c3ccccc23)o1
-15	.	O=C(CCOc1ccccc1)Nc1nc2ccc(Br)cc2s1
15	1.7	CC(C(=O)O)N1C(=O)/C(=C/c2ccc(Cl)cc2)SC1=S (stereo not drawn)
.	0.7	CN1CCN(Cc2c(O)ccc3c(=O)c(Oc4ccc(C(C)(C)C)cc4)c(C(F)(F)F)oc23)CC1
-10	.	CN(C(=O)COC(=O)c1cc(S(=O)(=O)N2CCCCC2)ccc1N1CCOCC1)C1CCS(=O)(=O)C1 (stereo not drawn)
11	2.8	CCc1ccc(Nc2cc(C(=O)NCc3cccs3)c3ccccc3n2)cc1
.	-2.3	S=C(Nc1cccnc1)NC1CCN(Cc2ccccc2)CC1
-9	.	COc1cccc(-n2c(C)nc3c(cnn3-c3ccccc3Cl)c2=O)c1
.	0.3	O=C(/C=C/c1ccccc1)N1CCOCC1
-176	.	Cc1ccc(/C=C(\C#N)C(=O)NCCc2ccccc2)o1
16	2.2	CC(C)(C)NCC(O)COc1c(Br)ccc2c1sc1nc3n(c(=O)c12)CCCCC3 (stereo not drawn)
-42	.	Cc1sc2nc[nH]c(=O)c2c1C
-13	.	O=c1nc(-c2ccccc2)c2ccccc2[nH]1
.	2.8	O=C(Nc1ccc(C(F)(F)F)cc1)Nc1ccc(C(F)(F)F)cc1
5	-2.4	Cn1ccnc1SCc1cn2ccccc2n1
.	-4.3	COc1ccccc1Oc1cccc(C)c1
-28	3.2	CCn1cc(C(=O)O)c(=O)c2cc(F)c(N3CCN(C)CC3)cc21
-10	2.1	N#CC1=C(N)SC(N)=C(C#N)C1c1ccncc1
4	.	Cc1ccc(Cl)cc1N1CCN(CCCNc2nn3nnnc3c3ccccc23)CC1
.	-0.6	COc1ccc(-n2cc(C#N)c(N)n2)cc1
7	.	COc1ccc(OCCSc2nc(N)cc(N)n2)cc1
3	-1.5	Cc1ccc(NCC(O)CN2c3ccccc3Sc3ccccc32)c(C)c1 (stereo not drawn)
-10	.	Brc1ccc(-c2csc(/N=C/N3CCCC3)n2)cc1
-7	.	CC(=O)NN=C1CCC(c2ccccc2)CC1 (stereo not drawn)
28	-0.2	O=C(COC(=O)C1CCCC1)c1ccccc1Br
-19	1.1	CC(C)CN(CC(C)C)CN1C(=O)c2ccccc2C1=O
-11	.	Cc1nn(CC(C)C)c2sc(C(=O)NC3CC(C)(C)NC(C)(C)C3)cc12
13	1.8	Cc1ccc2c(c1)CCCN2C(=O)NC1CCCCC1
3	3.2	Cc1ccc(S(=O)(=O)NN2CCN(C)CC2)s1
12	.	COc1ccc(CCC(=O)C2(O)CCCCC2)cc1
.	1.3	COc1cccc(C(=O)NC(=O)c2ccccc2O)c1
15	0.4	CC1(CO)COC(COc2ccccc2)=N1 (stereo not drawn)
1	-2.0	Cn1c2c(c(=O)n(C)c1=O)C(C(=O)Nc1ccc(Cl)c(Cl)c1)CC(=O)N2 (stereo not drawn)
20	-1.3	CCCOC(=O)C1=C(C)OC23OC(N)=C(C#N)C12C(=O)c1ccccc13 (stereo not drawn)
-9	.	COC(=O)c1c(C)oc(C)c1S(=O)(=O)NCc1ccco1
15	1.0	Cc1cccc(-c2nnc(-c3ccccc3)o2)c1
-33	.	Cc1cc(C)c(NC(=S)N(CCN2CCCCC2)Cc2ccco2)c(C)c1
-11	.	S=c1nc(C2CCCC2)nc2sccn12
-4	.	COc1cc(Br)cc2c1OC1(C)CC2NC(=O)N1 (stereo not drawn)
.	1.2&-0.9	CN(C)CC(O)Cn1c2ccc(Br)cc2c2cc(Br)ccc21 (stereo not drawn)
-11	.	COC(=O)C1CN(CC(=O)Nc2cccnc2Cl)CCS1 (stereo not drawn)
8	.	Cc1ccc(S(=O)(=O)NC2c3cccc4cccc(c34)C2Sc2ncccn2)cc1 (stereo not drawn)
.	3.5	CCN1c2cc(NC(C)=O)ccc2C(C)CC1(C)C (stereo not drawn)
.	3.1	COc1cc(OC)cc(-c2nc3ccccc3c(=O)n2NC(=O)c2cc(OC)ccc2Br)c1
16	-0.1	O=C(O)CCSc1nc2ccccc2o1

(further entries)
Sa helicase inh	MgrA DNA FP	molecule
-1	0.9	CCN1CCN(C(=S)NCC2CCCO2)CC1 (stereo not drawn)
19	18	CN(C)C(=S)c1ccc(N(C)C)cc1
-12	.	O=C(O)c1cccc2cccc(C(=O)O)c12
21	.	O=c1ccc(-c2ccc(S(=O)(=O)NCC3CCN(CCc4cccs4)CC3)s2)n[nH]1
.	1.8	COc1ccc(CNCc2ccc(OC)cc2)cc1
-3	.	N#CC1=C2N3CCCCCC3=NN2C(=O)NC1(c1ccccc1)C(F)(F)F (stereo not drawn)
.	2.2	N#Cc1c(-n2ccnc2)cccc1-n1ccnc1
15	8.0	Cc1ccc(OCc2ccccc2C(=O)O)cc1C
4	0.4	CCCC(=O)Nc1ccc(-c2cn3ccccc3n2)cc1
1	1.3	C=CCn1c(COc2ccccc2)n[nH]c1=S
6	4.0	COc1cc(S(=O)(=O)Nc2ccccn2)ccc1Cl
-11	.	CC1CCCN(C(=O)C(C)Nc2cc(Cl)ccc2N2CCOCC2)C1 (stereo not drawn)
4	.	Cc1cc(O)c(C=Nc2ccccc2)c(=O)o1
.	-2.2	Cc1ccccc1SC(CC(=O)c1ccc2ccccc2c1)c1ccc(Cl)c(Cl)c1 (stereo not drawn)
-57	16	CC(C)(C)C(=O)c1sc2nc(-c3cccs3)cc(C(F)(F)F)c2c1N

One compound at a time, as listed above. Screens in order: Sa helicase inh	MgrA DNA FP
COc1ccc2cc(C#N)c(NC(C)C)nc2c1 is listed with 10	.
O=c1ccc(-c2ccc(S(=O)(=O)NCC3CCN(CCc4cccs4)CC3)s2)n[nH]1 is listed with 21	.

Following part
Sa helicase inh	MgrA DNA FP	molecule
13	.	Cc1ccc(/C=N/NC(=S)NC2CCCCC2)o1
31	.	Cc1nc2ccc(NC(=O)C3CCCC3)cc2s1
5	.	CC(NC(=O)Cn1nc(-c2ccc(Cl)cc2)c2ccccc2c1=O)c1ccccc1 (stereo not drawn)
-6	.	O=C(Nc1cccnc1)c1ccc(OCC2CCCO2)cc1 (stereo not drawn)
11	0.9	COc1ccccc1/C=C/C(=O)NC1CCCC1
15	-0.3	O=C(c1cccs1)C(O)c1cccs1 (stereo not drawn)
.	-2.2	O=C(Cc1ccc([N+](=O)[O-])cc1)Nn1c(-c2ccc(Br)cc2)nc2ccccc2c1=O
10	.	C=CCN(C(=O)c1cc(OC)cc(OC)c1)c1nnc(-c2ccncc2)s1
12	-0.4	COc1ccc(/C=C2\Sc3ccc(C(=O)N4CCOCC4)cc3N(C)C2=O)cc1OC
1	.	O=C(OCC(=O)N1CCC(c2ccccc2)=N1)c1cc(=O)[nH]c2ccccc12
11	.	O=C(Nc1cccnc1)C(Cc1ccccc1)n1cccc1 (stereo not drawn)
-2	.	CCn1c(SC(C)C)nnc1-c1c[nH]c2ccccc12
-6	.	CCOC(=O)Nc1ccc2c(CNCCCN3CCOCC3)cc(=O)oc2c1
.	-3.4	CCN1C(=O)CCC(C(=O)O)C1c1ccc(OC)cc1 (stereo not drawn)
0	.	Cc1cc(C)nc(Nc2ncc(O)n2-c2ccc(C)c(C)c2)n1

Some of these compounds in order of their number in Sa helicase inh, smallest number first.
mol	Sa helicase inh	MgrA DNA FP
O=C(OCC(=O)N1CCC(c2ccccc2)=N1)c1cc(=O)[nH]c2ccccc12	1	.
COc1ccccc1/C=C/C(=O)NC1CCCC1	11	0.9
Cc1ccc(/C=N/NC(=S)NC2CCCCC2)o1	13	.

(cont.)
Sa helicase inh	MgrA DNA FP	molecule
.	4.3	Nc1c(C(=O)Nc2ccc(Br)cc2)sc2nc3c(cc12)CCCCC3
.	3.8	c1ccc2c(c1)CCCc1cc(NCCN3CCOCC3)nnc1-2
-8	3.0	Cc1cc(N2CCOCC2)nc(=S)[nH]1
-4	.	CCCN1CCN(CCCNC(=O)c2ccc3c(c2)sc2nc(-c4ccccc4)cn23)CC1
-18	.	CCn1nc(C(=O)OCC(=O)Nc2ccccc2)c2ccccc2c1=O
12	.	Cc1ccccc1Nc1nc(N)nc(COC(=O)c2ccccc2)n1
.	0.4	Cc1ccc(S(=O)(=O)NC(=O)Nc2ccc(C(F)(F)F)cn2)cc1
-32	5.1	CCN1C(=O)C2(C(C#N)=C(N)SC(N)=C2C#N)c2ccccc21
6	.	CCOC(Cn1c(C(C)O)nc2ccccc21)OCC (stereo not drawn)
6	1.8	COc1ccc(C(CN)N2CCOCC2)cc1 (stereo not drawn)
-13	.	CN(C)S(=O)(=O)c1cccc(C(=O)OCC(=O)N2N=C3/C(=C/c4ccco4)CCCC3C2c2ccco2)c1 (stereo not drawn)
5	.	O=C(NCCCN1CCCCCC1)c1cc2c(s1)-c1ccccc1OC2
8	.	CC1(C)CC(C(CC#N)c2ccc(F)cc2)CCO1 (stereo not drawn)
-20	.	O=C(CCn1[nH]c(=O)ccc1=O)Nc1nc(SCc2ccc(Cl)cc2)n[nH]1
15	-1.0	COc1ccc(CCNC(=O)C2CCN(Cc3nc(-c4ccccc4F)oc3C)CC2)cc1OC

Copied from the listing (2 entries):
Sa helicase inh	MgrA DNA FP	molecule
0	.	COc1ccc(C2CC(=O)N(CC(=O)c3ccccc3)c3ccccc3S2)cc1 (stereo not drawn)
8	.	CCCn1c(CNS(=O)(=O)c2ccc(C)cc2)nc2ccccc21

Continuation.
Sa helicase inh	MgrA DNA FP	molecule
-8	.	O=C(COc1ccccc1)NCCn1ccc2ccccc21
.	0.4	CC1(C)CC(=O)c2sc(NC(=O)c3ccc(S(=O)(=O)N4CCOCC4)cc3)nc2C1
9	.	CNc1oc(-c2ccc(Cl)cc2)nc1S(=O)(=O)c1ccc(C)cc1
.	-6.8	O=C(Nc1ccccc1)Nc1ccc(C2SCCS2)cc1
-2	-1.5	CC(C)(C)C1CCNCC1
6	1.6	Cc1cc(OCC(=O)Nc2cccnc2)c(C)cc1Br
0	.	CCCCNC(=O)C1CC(=O)N(CCC(C)C)C1 (stereo not drawn)
13	.	CCn1c(CSc2nc3ccccc3s2)nnc1SCC(=O)N(c1ccccc1)C(C)C
8	0.8	CCOC(=O)c1sc(NS(=O)(=O)c2ccccc2)nc1C
17	.	Cc1nn(Cc2ccccc2)c(C)c1CCC(=O)O
.	-0.1	CCN(CC)S(=O)(=O)c1ccc(Br)c2nsnc12
11	1.4	COc1ccc(-n2c(=S)[nH]c3cc(C(=O)N4CCN(c5ccccc5)CC4)ccc3c2=O)cc1
-9	-1.9	Cc1cc(C)n(C(N)=S)n1
-4	.	CCn1c(SCC(=O)OCC(=O)c2ccc(Br)s2)nnc1-c1cccs1
4	.	Cc1ccc(C)c(NCC(O)c2ccccc2)c1 (stereo not drawn)

Random excerpt: seven entries already listed
Sa helicase inh	MgrA DNA FP	molecule
.	-0.6	COc1ccc(-n2cc(C#N)c(N)n2)cc1
-4	.	COc1cc(Br)cc2c1OC1(C)CC2NC(=O)N1 (stereo not drawn)
-18	.	CCn1nc(C(=O)OCC(=O)Nc2ccccc2)c2ccccc2c1=O
9	3.0	CCOC(=O)c1c(-c2ccccc2)n(S(C)(=O)=O)c2ccc(NS(C)(=O)=O)cc12
-10	2.1	N#CC1=C(N)SC(N)=C(C#N)C1c1ccncc1
10	.	COc1ccc2cc(C#N)c(NC(C)C)nc2c1
.	0.4	Cc1ccc(S(=O)(=O)NC(=O)Nc2ccc(C(F)(F)F)cn2)cc1

The list goes on.
Sa helicase inh	MgrA DNA FP	molecule
3	-3.4	CCC(=O)OCCN1C(=O)c2ccccc2C1=O
35	.	O=C(c1cncn1-c1ccccc1)N(Cc1ccco1)Cc1cccs1
18	.	Cc1cccc(Cn2cnc3ccccc32)c1
-2	.	CSc1ccccc1NC(=O)CN(C)C(=O)COc1ccc(-c2nnco2)cc1
3	.	CCN(C(=O)Cn1c(=O)n(Cc2ccco2)c(=O)c2ccccc21)c1ccccc1
-7	.	COc1ccc(/C=N/O)cc1OC
-7	.	CCn1c(=O)c2cc(C(=O)NCc3ccc(C)o3)sc2c2ccccc21
10	.	O=C(CCc1c[nH]c2ccccc12)N1CCN(c2ccccc2)CC1
-36	0.1	COc1cc(C(=O)/C=C/Nc2ccc(N(C)C)cc2)cc(OC)c1OC
.	-3.0	N=C(N)SCc1ccc(Cl)c(Cl)c1
.	3.5	O=C(Nc1ccc(-c2csnn2)cc1)c1cccs1
.	3.2	Cc1ccc(SCc2ccccc2-c2nc3ccccc3[nH]2)cc1
.	-1.0	NC(=O)c1ccc(S(=O)(=O)N2CCOCC2)cc1
.	2.5	O=C1NCCc2c1[nH]c1ccc(Br)cc21
